# Rango complex inh: Rango-importin beta binding inhibition. Q14974. Rango CFP/YFP FRET sensor + importin beta, 45 min. Potency, µM (highest dose often 92.2 µM), inactives show top-dose inhibition of complex formation. 340,000 tested, 0.031% active. AID 540263; active = rising FRET ratio curve, often small or poorly fitted; inconclusive = mostly compound fluorescence or quenching in the first reads; inactive = flat curves in all reads;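 further: potency means the concentration at half of the fitted maximal effect; 0% = DMSO wells and 100% = buffer wells lacking importin beta; nearly all actives have a fitted effect of over 15% in size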
#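 FRET biosensor Rango (snurportin 1 IBB between N-terminal EYFP and C-terminal Cerulean), 50 nM in PBS/1 mM DTT/0.02% Tween-20/0.1% BSA, preincubated 5 min RT with compound; 0.125 microM importin beta added, 45 min RT, CFP/YFP FRET ratio read.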
# miR-21 FLuc: raises the signal of a miR-21 reporter; HeLa miR-21 FLuc reporter, luciferase, 48 h; 340,000 tested, under 10 active; Potency, µM (series often up to 38.3 µM), inactives show at the highest dose reporter change, positive = more light; active = well fitted rising curve with a large enough effect; inconclusive = small, poorly fitted or top-dose-only effect; inactive = no such curve, though single readings can be large or run the other way;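 further: % of control where 0% means no effect; miR-21 action dims this reporter so a rising signal means less miR-21 action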
#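 Using DMEM plus 10% FBS, HeLa miR-21-FLuc cells are incubated with test compounds (final up to about 40uM) for 48 hours; firefly luciferase signal is then imaged following reagent-mediated lysis.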
# Rango release inh: prevents RanGTP from dissociating the Rango-importin beta complex. O95149+P62826. Biochemical FRET Rango-importin beta, RanGTP-induced dissociation. Potency, µM (highest dose often 46.1 µM), for inactives: top-dose activity change, negative = inhibition. 340,000 tested, 0.071% active; active means falling FRET ratio curve, often poorly fitted, with flat reads before Ran was added; inconclusive means other falling curves, or compound fluorescence or quenching; inactive means flat or rising ratio curve;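 further: potency means the concentration at half of the fitted maximal effect; % of control where 0% means no effect; nearly all actives have a fitted effect of over 45% in size; -100% = wells without RanGTP and RCC1; the record marks most hits as doubtful in a second field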
#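 FRET read at 45 min, room temperature: inhibitors block the CFP/YFP signal rise when RanGTP (0.6 uM Ran, 2 mM GTP, 0.2 uM RCC1) frees Rango (0.1 uM) from importin beta (0.25 uM). Pre-read after 5 min compound exposure flags interference.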
# GLA inh pH 4.5: blocks human alpha-galactosidase A at pH 4.5; P06280; purified enzyme, 4-MU-alpha-Gal fluorescence, pH 4.5; activity change, negative = inhibition, % at 105 µM; 230,000 tested, under 10 active; inconclusive = small, poorly fitted or top-dose-only inhibition, or a rising curve; inactive = flat fitted curve, though single readings scatter; no compound was filed as active;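 further: 0% = full activity with enzyme and -100% = basal without enzyme; dose as in the result columns while the protocol names 77 µM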
# Target sequence (P06280 whole entry, looked up): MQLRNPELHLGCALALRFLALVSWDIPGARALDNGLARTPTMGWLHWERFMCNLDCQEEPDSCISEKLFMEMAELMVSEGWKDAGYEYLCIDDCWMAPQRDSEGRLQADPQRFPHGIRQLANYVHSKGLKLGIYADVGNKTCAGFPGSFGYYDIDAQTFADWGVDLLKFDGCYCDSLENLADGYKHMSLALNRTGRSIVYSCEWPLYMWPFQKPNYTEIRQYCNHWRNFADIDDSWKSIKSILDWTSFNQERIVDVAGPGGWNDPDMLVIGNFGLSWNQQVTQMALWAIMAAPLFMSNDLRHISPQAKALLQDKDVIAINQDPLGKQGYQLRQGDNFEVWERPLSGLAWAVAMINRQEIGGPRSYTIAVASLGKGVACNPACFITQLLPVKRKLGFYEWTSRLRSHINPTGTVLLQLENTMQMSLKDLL
# * marks the source's active call; other numbers are inactive results; ? = inconclusive; nt = not tested or not shown; & = joins results of further samples. The list is partial (hit frequency here may not be typical).
SMILES | GLA inh pH 4.5 | Rango release inh | miR-21 FLuc | Rango complex inh
Cc1c(CCC(=O)NC2CC2)c(=O)oc2cc(O)ccc12 | nt | ? | -4.5% | ?
O=C(Cn1cccn1)N1CCCC(Nc2ccc(F)c(F)c2)C1 (centres undefined) | nt | 1.8% | -0.9% | 8.3%
Cc1cc(NC(=O)c2ccccc2-c2ccccc2C(=O)O)no1 | 2.3 | 27.0% | -8.8% | 1.8%
Cc1cc(C(=O)OCC(=O)N2CCC(C)CC2)c2ccccc2n1 | nt | 0.0% | nt | 2.1%
CCN(CC)C(=O)CSc1nnc(-c2ccco2)o1 | -3.9 | 4.1% | -32.9% | -4.4%
O=C(NC1CCCC1)C(c1ccncc1)N(CCCN1CCOCC1)C(=O)c1ccc(-c2ccccc2)[nH]1 (centres undefined) | -0.1 | 0.2% | -17.7% | -0.7%
CCC(CC)C(=O)N1CC(=O)Nc2ccc(C)cc2C1c1ccccc1 (centres undefined) | nt | -14.0% | -1.1% | ?
O=C(Nc1cc(C(=O)N2CCN(c3ccccc3)CC2)ccc1Cl)c1cccs1 | nt | -8.2% | nt | 1.6%
CCCCC(C(=O)N/N=C/c1ccccn1)C(=O)N/N=C/c1ccccn1 | -1.6 | 12.5% | -0.8% | -0.2%
CCOC(=O)c1cccc(NC(=O)C2(S(=O)(=O)c3ccc(Cl)cc3)CC2)c1 | -2.6 | 0.6% | -9.9% | -0.5%
O=C(NCC(c1ccco1)N1CCc2ccccc2C1)c1ccc(F)cc1 (centres undefined) | nt | 35.6% | nt | 4.0%
Cc1ccccc1N(Cc1ccccc1F)S(C)(=O)=O | 1.2 | 6.4% | 6.0% | 0.5%
CN(C)C(CNC(=O)CCNC(=O)c1ccc(Br)cc1)c1ccco1 (centres undefined) | nt | -5.3% | nt | 1.5%
O=C(OCC(=O)N1CCOCC1)c1ccccc1OCc1ccccc1 | nt | ? | nt | -0.5%
CCc1ncc(CN2CCCC(C(=O)Nc3cccc(-c4cccc(C)c4)c3)C2)cn1 (centres undefined) | nt | -6.3% | -1.2% | -2.7%
COc1ccc(S(=O)(=O)N2CCC(C(=O)NC3CC3)CC2)cc1Cl | 4.0 | 11.4% | -1.0% | -0.3%
Cc1cc(NC(=O)c2cnn3c(C(F)(F)F)cc(-c4ccc(Br)cc4)nc23)no1 | 3.9 | 0.8% | -0.1% | 0.7%
COc1ccc(CCNC(=O)c2ccccc2C(=O)NCCc2ccc(OC)c(OC)c2)cc1OC | nt | 2.2% | nt | -1.0%
Cn1nc(C(F)(F)F)c2cc(C(=O)Nc3ccc(F)cc3F)sc21 | -25.0 | -13.1% | -2.2% | -2.5%
O=S(=O)(c1ccc(Br)cc1)n1c(Cc2ccccc2)nc2ccccc21 | 2.1 | -15.9% | -8.0% | 0.6%
Cc1csc2nc(CCNS(=O)(=O)c3cccs3)cn12 | 10.2 | -15.5% | -49.4% | 0.4%
CC[N+]1=CN(c2ccccc2)C(C)=CC1(C)C | 7.9 | 0.8% | -2.3% | 1.7%
CCOC(=O)c1c(C)c(C(=O)NCc2ccc3c(c2)OCO3)c(C)n1CC | 1.6 | 0.5% | -10.1% | 2.9%
CCOc1ccc(C(C)=O)cc1COC(=O)CN1C(=O)NC2(CCCC2)C1=O | nt | ? | nt | -0.2%
CN(CCN1CCc2ccccc2C1)Cc1nc(Cc2ccccc2F)no1 | 1.5 | -10.6% | -0.3% | -3.3%
O=C(COC(=O)c1ccc(Cl)nc1)Nc1ccc(S(=O)(=O)N2CCCC2)cc1 | -3.1 | -1.7% | -2.9% | 0.7%
N#Cc1ccc(-c2csc(NC(=O)/C=C/c3cccs3)n2)cc1 | -6.7 | -1.3% | 3.9% | -15.5%
CCCCOc1ccc(C(=O)N/C(=C\c2cccc([N+](=O)[O-])c2)C(=O)OCCC)cc1 | 1.1 | 1.8% | -6.4% | -2.3%
O=C(CNC(=O)c1ccccc1)OCC(=O)c1ccc(Cl)s1 | nt | 1.1% | nt | -3.5%
Cc1ccc(-n2c(C)c3c(C)nnc(C)c3c2C)cc1N | 6.5 | -4.2% | -3.9% | -3.3%
O=C(CSc1nc(=O)n2cc(Cl)ccc2n1)Nc1ccc2c(c1)OCCO2 | nt | -9.6% | nt | -0.5%
COc1ccc(C(=O)Nc2ccccc2C(=O)NCCN2CCOCC2)cc1OC | nt | -1.8% | -3.9% | 0.3%
O=C(CN1CCN(Cc2ccccc2)CC1)Nc1cccc(C(F)(F)F)c1 | -1.1 | -11.9% | -1.2% | -0.3%
CCOc1ccc(/C(O)=C2\C(=O)C(=O)N(CCN(C)C)C2c2cc(OC)ccc2OC)cc1Cl (centres undefined) | nt | -0.7% | nt | 0.0%
CCCCOc1ccccc1C(=O)NCCCC(=O)O | 2.0 | 5.0% | -2.1% | -0.2%
CC1CCCN(C(=O)CN(C)S(=O)(=O)c2cccc3nsnc23)C1 (centres undefined) | nt | -4.9% | -1.5% | 0.6%
O=c1nc2s/c(=C\c3ccco3)c(=O)n2nc1Cc1ccc(F)cc1 | 6.9 | -10.1% | -5.8% | ?
COC(=O)c1ccc(N2CCN(C)CC2)c(NC(=O)c2cccs2)c1 | nt | -2.3% | 11.2% | 0.2%
CC1CC(C)CN(CCC(=O)Nc2ccc(Br)cc2)C1 (centres undefined) | nt | 28.7% | -9.7% | 4.0%
O=C(CC1CCCCC1)NC1CCCC1 | -5.2 | 0.1% | -22.5% | -1.5%
O=S(=O)(N1CCCCCC1)N1CCN(S(=O)(=O)N2CCOCC2)CC1 | -7.0 | 4.4% | -0.3% | -0.4%
COC(=O)C1=C(C(=O)OC)C(C(=O)OC)C(C(=O)OC)C(C(=O)OC)(C(=O)OC)C(C(=O)OC)=C1C(=O)OC (centres undefined) | nt | 7.2% | nt | -3.9%
Cc1ccc2c(=O)[nH]c(Nc3nc(C)cc(-c4ccccc4)n3)nc2c1 | -2.6 | 13.1% | 0.6% | 6.0%
Cc1csc2nc(CNS(=O)(=O)c3ccc4c(c3)OCCO4)cn12 | 8.8 | 0.5% | -1.8% | 6.1%
CC(=O)c1ccccc1OCCn1nnc(-c2ccc(C)cc2)n1 | -14.6 | -14.9% | -10.2% | 1.2%
Cc1ccc(OCCCN2C(=O)C(=O)c3cccc(C)c32)cc1 | -24.3 | -17.1% | -11.8% | 3.0%
COc1ccc(C(=O)CSc2nn3c(=O)c(C(C)(C)C)nnc3s2)cc1 | -4.2 | -2.5% | -0.9% | ?
Cc1c2ccccc2nc2ccccc12 | nt | -29.4% | nt | ?
c1ccc(OCCOCCN2CCc3ccccc3C2)cc1 | -1.8 | -9.2% | -6.7% | -2.9%
Cc1cc(=O)oc2c(C)c(OC(C)C(=O)NCCCN3CCCC3=O)ccc12 (centres undefined) | nt | -9.8% | -0.4% | 0.0%
CCN=C1SC(C(=O)Nc2ccc(OC)cc2)CC(=O)N1CC (centres undefined) | 2.6 | -10.5% | 2.0% | 0.4%
Cc1ccc(C2=NN(C(=O)CSc3nccn3C)C(c3ccco3)C2)cc1 (centres undefined) | nt | 8.9% | 15.7% | 3.2%
CC(C)Sc1nc2c(c(=O)[nH]c(=O)n2C)n1Cc1ccc(Cl)cc1 | 3.7 | -7.8% | -38.1% | -5.6%
O=C(Nc1ccc(F)cc1)N1CCN(c2ccc3nnc(-c4ccc(F)cc4)n3n2)CC1 | -10.3 | 4.7% | 15.5%&2.5% | 3.6%
O=C(COC(=O)c1ccc([N+](=O)[O-])o1)NCc1ccc2c(c1)OCO2 | nt | 4.4% | nt | 1.2%
O=C(Nc1ccc(S(=O)(=O)N2CCOCC2)cc1)c1ccc(CN2CCc3ccccc3C2)cc1 | ? | 12.7% | ? | -3.9%
C=CCSc1nnc(NC(=O)C2=COCCO2)s1 | nt | 22.0% | nt | 2.8%
NS(=O)(=O)c1ccc(CCNC(=S)NC2CCCC2)cc1 | -5.6 | -13.0% | -1.9% | 0.4%
Cc1ccc2[nH]c(=O)c(CN(CCCN(C)C)C(=O)Nc3cccc(Cl)c3)cc2c1 | -1.2 | 6.7% | -5.8% | 2.1%
Cc1cccc(NC(=O)Cc2ccc(NC3=NC4CS(=O)(=O)CC4S3)cc2)c1 (centres undefined) | nt | -6.1% | -0.3% | -11.7%

# Next structures.
SMILES | GLA inh pH 4.5 | Rango release inh | miR-21 FLuc | Rango complex inh
COc1ccccc1N1CCN(C(=O)C(C)NC(=O)c2cccc([N+](=O)[O-])c2)CC1 (centres undefined) | nt | -3.7% | 0.7% | 7.0%
Cc1cc(C)cc(N(CCC(=O)O)S(=O)(=O)c2ccc(Cl)cc2)c1 | -6.9 | -17.7% | 0.4% | 4.4%
O=C(CSc1ncn[nH]1)NCc1ccccc1Cl | nt | -13.1% | -10.1% | 5.1%
COc1cc(/C=N/NC(=S)NCCN2CCOCC2)cc(OC)c1O | 1.0 | 17.8% | -16.1% | ?
CCOc1cccc(C(=O)NC(=S)Nc2ccc3c(c2)OCCO3)c1 | 0.6 | -0.6% | -50.9% | 1.1%
COC(=O)c1cc(COC(=O)c2ccc3ccccc3n2)oc1C | -0.2 | -4.3% | 4.3% | -0.1%
Cc1csc2c(=O)[nH]cnc12 | -11.2 | 8.3% | -1.8% | 0.2%
O=C(CCN=C1NS(=O)(=O)c2ccccc21)OCc1ccccc1 | nt | ? | nt | -5.5%
COc1ccc(CNC(=O)COC(=O)CCOc2ccccc2)cc1 | 4.1 | 0.6% | 0.5% | 0.3%
CCOc1ccccc1OCC(=O)OCC(=O)c1c(N)n(CC(C)C)c(=O)n(C)c1=O | nt | 9.9% | nt | -1.1%
CC(C)NC(=S)N/N=C1\CCCCc2ccccc21 | -15.0 | -0.3% | -2.8% | 0.6%
Fc1ccccc1SCc1nnc(-c2ccccc2Br)o1 | -8.9 | -3.3% | -58.9% | -1.8%
CC(=O)NC(C)CCc1ccccc1 (centres undefined) | -4.9 | 9.4% | -18.4% | 1.5%
O=C(/C=C/c1ccco1)N(Cc1ccccc1F)C1CCS(=O)(=O)C1 (centres undefined) | nt | -5.8% | -13.4% | -5.5%
C=CC[C@@H](CC(=O)NCCO)C(=O)N[C@H](COC(=O)[C@@H](CC=C)Cc1ccc(F)cc1)Cc1c[nH]c2ccccc12 | nt | 1.4% | nt | -5.0%
COc1cccc(C(=O)OCC(=O)NC23CC4CC(CC(C4)C2)C3)c1 | nt | -7.6% | nt | -0.5%
O=C(NCC(c1cccnc1)N1CCN(c2ccc(F)cc2)CC1)c1ccccc1 (centres undefined) | -2.2 | 3.1% | 3.9% | -1.9%
C/C=C/C(=O)Nc1cccc(C2=NOC3(C2)C[C@@H](C(N)=O)N(C(=O)/C(C)=C/C)C3)c1 (some centres undefined) | 3.1 | 19.7% | 1.0% | 0.3%
CCOc1ccc(-n2c(SCc3nc(-c4cccs4)no3)nnc2-c2ccncc2)cc1 | -2.1 | -3.5% | -2.5% | -2.3%
O=C(CCNS(=O)(=O)c1ccc(Cl)cc1)NCc1ccccn1 | -3.2 | -12.1% | -1.9% | -2.2%
Cc1ccc(NC(=O)CSc2nnc(-c3ccccn3)n2C)cc1 | 5.3 | 18.9% | -3.2% | ?
CSc1nc2ccc(S(N)(=O)=O)cc2s1 | -10.3 | -5.3% | -15.1% | -5.7%
COc1ccc(NC(=O)Nc2ccc3c(c2)N(C)C(=O)CS3)cc1OC | 8.3 | 26.4% | 7.6% | -1.8%
COc1ccc(NC(=O)CCC(=O)N2CCCC2)c([N+](=O)[O-])c1 | nt | 0.7% | -2.8% | -0.1%
CC(=O)Nc1nnc(SCc2cccc(F)c2)s1 | 4.5 | -8.7% | -13.5% | -4.1%
CC(C)NC(=O)COC(=O)C1CSC2(c3ccc(Br)cc3)CCC(=O)N12 (centres undefined) | 0.7 | 1.4% | -3.4% | -1.7%
O=[N+]([O-])c1ccccc1S(=O)(=O)NCCC1=CCCCC1 | 3.1 | -4.0% | -11.6% | -0.8%
Cc1cnc(C(=O)OCC(=O)Nc2oc(-c3ccccc3)c(-c3ccccc3)c2C#N)cn1 | 0.1 | 0.4% | 21.8% | 2.6%
CCOc1ccc(NS(=O)(=O)c2c(C)nc3sccn3c2=O)cc1 | nt | 15.8% | -0.2% | -0.5%

# High-throughput results as filed in PubChem.
